INS promoter inh = TRM-6 insulin promoter activity inhibition; TRM-6 cells (human fetal islet line), insulin promoter-eGFP reporter, imaging; reporter expression induced with tamoxifen; 130,000 compounds, 0.9% hits; inhibition, % at 2 µM;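 active means inhibition above the mean plus 3 SD, with well images judged a real hit on visual review, cut at about 60% in these data, passing the limit was not always enough; inconclusive means inhibition over the cutoff but images rejected on review; inactive means inhibition not above the cutoff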
RGS16-Gao HTS = RGS16-Galphao interaction regulator (human) | bead-based flow cytometry RGS16-Galphao binding, fluorescence; actives lie on both sides | binding response (% of control), % at 10 µM | 220,000 compounds, 0.38% hits;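 active means below 25% or above 175%, edge rows of some plates excepted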;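 further: Galphao activated by GDP with aluminum fluoride before binding; 100% = wells without compound and 0% = beads without RGS; some results beyond the cut were filed as inactive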
Target sequence (O15492 whole entry, looked up): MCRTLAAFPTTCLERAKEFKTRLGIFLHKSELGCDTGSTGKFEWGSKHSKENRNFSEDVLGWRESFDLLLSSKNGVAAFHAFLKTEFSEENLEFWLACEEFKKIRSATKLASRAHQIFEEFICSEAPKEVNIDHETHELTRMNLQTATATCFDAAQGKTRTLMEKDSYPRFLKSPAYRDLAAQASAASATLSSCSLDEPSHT
Target sequence (P09471 whole entry, looked up): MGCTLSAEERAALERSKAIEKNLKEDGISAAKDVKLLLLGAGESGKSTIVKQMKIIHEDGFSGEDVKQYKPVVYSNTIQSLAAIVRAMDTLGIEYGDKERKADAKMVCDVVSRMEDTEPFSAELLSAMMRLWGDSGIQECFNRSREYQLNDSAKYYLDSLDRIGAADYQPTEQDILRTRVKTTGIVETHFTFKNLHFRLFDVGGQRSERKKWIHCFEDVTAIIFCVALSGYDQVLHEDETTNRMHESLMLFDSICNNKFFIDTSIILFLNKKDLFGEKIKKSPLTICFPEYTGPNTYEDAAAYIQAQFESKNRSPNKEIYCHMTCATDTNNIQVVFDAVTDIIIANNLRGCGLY
PKD1 inh = PKD1 (human) kinase inhibition; Q15139; PKD1 kinase fluorescence polarization assay; inhibition, %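 (about 10 µM by stock and volumes)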; 200,000 compounds, 0.056% hits; AID 797;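 active means inhibition of 50% or more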;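 further: controls were vehicle for no effect and a reference inhibitor for full effect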
HSV augment = HSV replication enhancement; maximum fold increase; HSV replication augmentation in cells, fold increase; 220,000 compounds, 0.005% hits;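 active means peak rise of 1.5-fold or more in the series; inconclusive means self-fluorescent or not available for retest; tested in PC3 cells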;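 further: first round at 10 µM; read as green reporter fluorescence; hits show the peak of a series up to 25 µM; 1 = signal of infected wells without compound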
GALR2 ag = activates the human galanin receptor 2; O43603; GALR2-expressing cells, agonist activation read-out; activation, %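 (tested at 5 µM)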; 140,000 compounds, 0.48% hits; AID 803;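 active means above mean plus 3 SD of all compounds, about 5% in these data, not always enough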;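 further: 0% = vehicle buffer wells and 100% = reference agonist at full effect; tested in CHO reporter cells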
Target sequence (O43603 whole entry, looked up): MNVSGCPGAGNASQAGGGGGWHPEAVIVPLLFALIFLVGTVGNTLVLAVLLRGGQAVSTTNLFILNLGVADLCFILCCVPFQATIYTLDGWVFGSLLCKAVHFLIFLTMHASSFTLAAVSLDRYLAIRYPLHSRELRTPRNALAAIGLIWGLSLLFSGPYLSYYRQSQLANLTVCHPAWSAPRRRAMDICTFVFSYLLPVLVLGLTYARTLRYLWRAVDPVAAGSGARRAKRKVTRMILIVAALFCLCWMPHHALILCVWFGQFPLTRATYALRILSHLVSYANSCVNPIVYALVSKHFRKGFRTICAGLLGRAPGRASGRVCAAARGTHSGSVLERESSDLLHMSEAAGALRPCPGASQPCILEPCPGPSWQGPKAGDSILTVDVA
INS promoter inh cell count = second read-out of INS promoter inh, no call of its own (marks repeat the call); normalized cell count, %; measured here: cell count, toxicity; reference of the scale not given here;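 cells exposed to compound for 48 h; stained nuclei by imaging scaled within each plate; lower means fewer cells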
HSV augment primary fold = recorded beside HSV augment, whose call it bears; fold increase; compound at 10 µM; measured here: primary screen fold increase 10 uM; tested in PC3 cells;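 GFP signal in the first replicate; 1 = infected wells without compound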
The depositor's hits bear a star; i = inactive; u = inconclusive; x = not tested or not shown. Rows were taken by chance; any-hit rate near 1.3%.

SMILES	INS promoter inh	INS promoter inh cell count	RGS16-Gao HTS	PKD1 inh	HSV augment	HSV augment primary fold	GALR2 ag
CCOC(=O)c1c(NC(=O)CSc2nnc(-c3ccncc3)n2Cc2ccco2)sc(C)c1C	x	x	102.6	2.9	x	x	1.2
O=C(CC1C(=O)NCCN1Cc1cccc(Oc2ccccc2)c1)NCCc1cnccn1 (configuration not stated)	x	x	97.8	7.6	i	0.94	x
COc1ccc(C(=O)Nc2ccc(S(=O)(=O)N3CCOCC3)cc2)cc1OC	9.7	93.3	101.6	-1.8	i	0.95	-3.9
COc1ccccc1Oc1ccc(S(=O)(=O)N2CCN(C)CC2)cc1	-40.0	128.0	102.0	-3.8	i	1.01	x
C=CCNC(=O)C1CCN(S(=O)(=O)CC)CC1	x	x	95.0	0.0	i	1.12	0.2
Cc1ccc(S(=O)(=O)Nc2nc(C)cc(NN)n2)cc1	x	x	99.5	x	i	0.91	x
Cc1nn(Cc2ccccc2)c(C)c1C(=O)NCCN1C(=O)S/C(=C\c2ccccc2)C1=O	x	x	109.1	-0.2	i	0.97	-0.4
Cc1ccc(C(=O)N2C3=C(CCCC3)C(=O)NC23CCCCC3)cc1	x	x	97.1	-7.5	i	0.93	x
CC(O)c1nc2ccccc2n1CC(=O)N1CCN(c2ccccc2)CC1 (configuration not stated)	50.0	128.0	101.4	4.6	i	0.94	x
CC[N+](CC)(CC)C/C=C/CN1CCCCC1	35.7	102.9	74.4	-19.1	i	0.98	-1.2
CC1(C)NC(C)(C)/C(=C\c2cccs2)C(=O)C1=O	x	x	104.2	-16.5	i	0.94	x
O=C(CSc1ncn[nH]1)NC1CC2CCC1C2 (configuration not stated)	27.3	123.5	107.9	-2.1	i	1.01	-3.0
CC1CC(NC2=NCCS2)CC(C)(C)C1 (configuration not stated)	x	x	102.3	x	i	0.83	x
CCc1ccc2[nH]c(O)c(N=NC3=NC(=O)CS3)c2c1	x	x	99.8	x	i	1.18	x
COCCn1nnnc1C(c1ccccc1)N1CCN(Cc2ccc3c(c2)OCO3)CC1 (configuration not stated)	x	x	98.4	-9.7	i	0.88	-1.7
C#CCOCCOCCOCCNc1nc(N2CCN(C(=O)C([C@@H](C)CC)n3cc(C(N)Cc4ccc(O)cc4)nn3)CC2)nc(N2CCN(C(=O)[C@H](CCC(=O)O)n3cc(C(N)CC(C)C)nn3)CC2)n1 (some centres not stated)	x	x	100.3	5.7	i	0.82	x
Cc1cc(CN2C(=O)c3ccccc3C2=O)cc(N2CCOCC2)c1	x	x	-69.4	-1.1	i	0.66	-1.0
CCOC(=O)CSC1=N/C(=C\c2ccc(OC)c(OC)c2)C(=O)N1C	x	x	104.2	-5.9	i	0.97	-0.7
COc1ccc(/C=N/NC(=O)Cc2n[nH]c(=O)[nH]c2=O)cc1	x	x	98.4	x	i	0.95	x
O=C(COC(=O)C1(c2cccc(F)c2)CCCC1)NCc1cccs1	x	x	95.0	-8.9	i	1.01	x
C=CCn1c(COc2ccccc2F)nnc1SCC(=O)NC(=O)NCc1ccco1	23.1	98.4	96.2	-6.2	x	x	-1.3
CC(C)NC(=O)CSc1nnc(-c2ccc(F)cc2)c2ccccc12	-23.5	91.3	100.8	-9.3	i	0.92	x
CCOC(=O)c1c(NC(=O)CSc2nnc(-c3ccc(OC)cc3)o2)sc2c1CCC2	15.0	63.0	x	4.2	i	1.05	-2.1
CCOC(=O)CCC(=O)N1CCNC(=O)C1	-120.0	95.8	103.3	-10.4	i	0.94	-1.2
CCO[C@H]1OC(C(=O)N2CCOCC2)=C[C@@H](c2ccccc2)[C@@H]1CCCO	x	x	106.8	-11.2	i	1.09	x
O=C(Nc1ccc2c(c1)OCO2)c1cc2n(n1)C(C(F)(F)F)CC(c1ccccc1)N2 (configuration not stated)	x	x	105.9	-10.0	i	0.83	0.1
C=CCn1c(SCC(=O)Nc2cc(NC(C)=O)ccc2OC)nnc1-c1ccccn1	x	x	99.2	-1.2	i	0.89	-1.5
O=C(CSc1ccc(F)cc1)N1CCN(S(=O)(=O)c2ccccc2)CC1	x	x	108.4	1.6	i	1.03	x
CC(Sc1nnc(-c2ccccc2)c(-c2ccccc2)n1)C(=O)Nc1ncc(Cl)cc1Cl (configuration not stated)	-14.3	125.1	101.0	-2.1	i	1.04	-0.1
CCCCNC(=O)c1cccc2c(=O)c(C)c(-c3ccccc3)oc12	x	x	120.6	-11.8	i	0.91	0.9
CS(=O)(=O)c1ccc(Cl)c(NC(=O)COC(=O)CNC(=O)c2ccccc2)c1	x	x	104.2	-0.1	i	0.96	x
CC(=O)Nc1ccc(S(=O)(=O)N2CCN(CCN3CCOCC3)CC2)cc1Cl	x	x	97.1	x	i	1.03	x
O=C(O)c1nn2cc(CCO)cnc2c1Cl	-18.8	107.1	100.3	-0.6	i	0.96	x
CCn1cc(C2=NOC(C(=O)Nc3cc(C)nn3-c3ccccc3)C2)c(C)n1 (configuration not stated)	12.5	132.0	96.3	-12.7	i	1.13	11.1*
O=C(O)c1cc(N/N=C/C(Cl)=C/c2ccccc2)ccc1Cl	x	x	103.8	15.0	i	1.07	x
Cc1cc(C)[n+](-c2ccc(Oc3ccccc3)c(S(=O)(=O)[O-])c2)[nH]1	x	x	100.2	x	i	0.99	x

Laid out differently: results already given.
Results follow in this order: INS promoter inh, INS promoter inh cell count, RGS16-Gao HTS, PKD1 inh, HSV augment, HSV augment primary fold, GALR2 ag
- CS(=O)(=O)c1ccc(Cl)c(NC(=O)COC(=O)CNC(=O)c2ccccc2)c1
 : x, x, 104.2, -0.1, i, 0.96, x
- CC(=O)Nc1ccc(S(=O)(=O)N2CCN(CCN3CCOCC3)CC2)cc1Cl
 : x, x, 97.1, x, i, 1.03, x
- O=C(O)c1nn2cc(CCO)cnc2c1Cl
 : -18.8, 107.1, 100.3, -0.6, i, 0.96, x

Other compounds.
SMILES	INS promoter inh	INS promoter inh cell count	RGS16-Gao HTS	PKD1 inh	HSV augment	HSV augment primary fold	GALR2 ag
C/C(=N/NC(=O)c1cccs1)c1c(C)[nH]n(-c2nc3ccccc3s2)c1=O	34.7	116.9	169.5	4.2	u	x	-0.7
Cc1c(N=Cc2cccnc2)c(=O)n(-c2ccccc2)n1C	-332.6	50.7	98.2	-6.1	i	0.93	-3.4
CCCOc1ccc(N2C(=O)CC(N(Cc3ccc(OC)cc3)C(=S)Nc3ccccc3)C2=O)cc1 (configuration not stated)	x	x	103.0	3.2	i	0.74	-1.4
CNc1nc2c(c(=O)n(C)c(=O)n2C)n1Cc1ccccc1	6.5	114.0	96.6	4.8	i	0.99	-1.8
O=C(COc1ccccc1O)Nc1ccc(Cl)cc1	50.0	138.0	100.0	-7.4	i	1.05	-3.4
OC(COc1ccc2cc(Br)ccc2c1)CN1CCCC1 (configuration not stated)	-23.3	167.8	103.7	-7.2	i	0.67	-2.2
COc1ccc(C(=O)OCC(=O)Nc2ccc(F)cc2F)cc1OC	2.6	58.6	101.7	25.6	i	0.94	-1.8
Cc1cc(C)cc(N2C(=O)CC(Cn3nc(C)cc3C)C2=O)c1 (configuration not stated)	x	x	93.7	x	i	1.16	x
Cn1c(=O)cc(Cl)[nH]c1=O	x	x	106.9	-2.5	i	0.93	x
CCOc1ccc(NC(=O)C(=S)NC2CCCCC2)cc1	x	x	145.7	-0.8	i	0.87	x
COc1cc(CCC(=O)Nc2ccc(C)c(S(=O)(=O)N(C)C)c2)cc(OC)c1OC	24.3	148.6	102.5	-4.3	i	0.9	0.6
CCOC(=O)C(=Cc1ccc(Br)cc1)C(=O)OCC	x	x	97.3	x	i	0.6	x
CCN(CC)S(=O)(=O)c1cc(NC(=O)C(C)N2CCN(c3ccccn3)CC2)ccc1C (configuration not stated)	x	x	93.7	1.9	i	1.01	x
Oc1ccc(/C=N/N2CCN(C3c4ccccc4-c4ccccc43)CC2)cc1	x	x	102.3	x	i	1.18	x
COc1ccc(-c2noc(CN(C)CCC3CCCCO3)n2)cc1 (configuration not stated)	x	x	106.6	-2.6	i	1.28	x
Cc1onc(-c2c(F)cccc2Cl)c1C(N)=S	-57.1	52.0	54.2	-5.4	x	x	x
CCOC(=O)C1(Cc2cccc(OC)c2)CCN(CCO)CC1	x	x	92.4	0.9	i	0.81	x
COc1ccc(-c2cc(C(=O)Nc3ccc(C(N)=O)cc3)c3ccccc3n2)cc1OC	x	x	100.4	-3.5	i	0.64	x
COc1ccc(NC(=O)C2CCCN(S(=O)(=O)c3cnc[nH]3)C2)cc1 (configuration not stated)	x	x	85.9	-1.7	i	0.97	-1.9
COc1ccc(/C=N/n2c(=O)[nH]c3c([nH]c4ccc(C)cc43)c2=O)cc1CN1CCOCC1	-62.1	42.0	108.5	-0.5	i	0.94	-1.2
COc1ccc(CC(=O)Nc2ccc(S(=O)(=O)NC(C)C)cc2)cc1	64.3	74.8	101.8	-3.8	i	0.94	-0.9
COc1cc(/C=C(\C#N)c2nn(CCO)c(N)c2C#N)cc(OC)c1OC	x	x	110.9	-5.0	i	0.89	x
N#C/C(=C\c1cccs1)C(=O)c1ccccc1	x	x	96.0	x	i	1.04	x
C/C(CC(=O)NCCN1CCOCC1)=N\NC(=O)c1ccncc1	x	x	102.5	x	i	1.08	x
COc1ccc(-c2nc(Cn3c(SCc4ccc(C)cc4)nc4ccncc43)c(C)o2)cc1OC	x	x	101.5	12.3	i	0.84	-2.5
O=C1CCCCCN1Sc1ccccc1	x	x	77.3	-8.2	i	0.91	-1.5
CC(=O)OCC(=O)Nc1c(C)cccc1C	-36.4	98.0	101.7	-2.8	i	1.03	x
O=C1N/C(=N/N=C/c2ccc(F)cc2)SC1c1ccccc1 (configuration not stated)	x	x	99.8	x	i	0.93	x
O=C(COC(=O)c1cccc(S(=O)(=O)N2CCN(c3ccccc3)CC2)c1)NCc1ccco1	-11.1	110.3	89.6	2.8	i	0.96	-1.1
CCOC(=O)c1c(-c2ccccc2)nc2c(C)cccn12	-18.9	162.0	100.5	-19.9	i	1.02	-3.2
CCOC(=O)N1CCN(S(=O)(=O)c2ccc(OCC)c3ccccc23)CC1	-21.4	148.0	96.7	-5.0	i	0.93	0.9
C=CCOC(=O)C1=C(C)Nc2nnnn2C1c1ccc(OC)cc1OC (configuration not stated)	-2.8	148.4	100.4	-7.5	i	0.93	-2.7
O=C(CCN1C(=O)c2ccncc2C1=O)Nc1ccc(F)cc1	-18.8	104.9	96.6	10.7	i	0.79	-0.6
CCCC12CN3CC(CCC)(CN(C1)C3C(O)C(O)C(O)CO)C2=O (configuration not stated)	-3.9	89.5	102.0	-7.8	i	0.9	-3.4
COc1ccc2cc(C#N)c(NC(C)C)nc2c1	85.7*	135.7*	100.0	-16.6	i	0.857	-0.9
CCOC(=O)c1sc2nc(C)nc(N3CCN(c4ncccn4)CC3)c2c1C	x	x	99.0	-1.0	i	0.96	x
CCn1c(SCC(=O)Nc2nc3ccccc3s2)nnc1-c1ccc(OC)cc1	4.8	121.1	107.2	-7.8	i	1.03	0.2
O=C(Nc1nncs1)c1ccc(Br)c(S(=O)(=O)N2CCCC2)c1	53.3	95.3	99.2	-7.2	i	1	-1.7
CN(C(=O)COC(=O)c1cc(S(=O)(=O)N2CCCCC2)ccc1N1CCOCC1)C1CCS(=O)(=O)C1 (configuration not stated)	x	x	97.8	x	i	1.03	x
Cc1ccc(-n2c(Cc3cccs3)nnc2SCC(=O)Nc2ccc(S(N)(=O)=O)cc2)cc1	58.3	112.4	100.8	-3.5	i	1.04	0.9
Cc1ccc(-c2nnn(CC(=O)N(CC(=O)NCC3CCCO3)c3ccc(F)c(Cl)c3)n2)o1 (configuration not stated)	x	x	93.5	-3.3	i	0.9	-0.9
COc1ccccc1C(=O)NCC(c1cccnc1)N(C)C (configuration not stated)	7.9	103.5	99.1	-13.2	i	0.75	-2.0
Cc1ccc(NC(=O)c2cnc(N3CCN(c4ccccn4)CC3)c3ccccc23)c(Br)c1	0.0	75.4	100.2	-8.4	i	0.86	x

A stretch of the results above, for reference:
SMILES	INS promoter inh	INS promoter inh cell count	RGS16-Gao HTS	PKD1 inh	HSV augment	HSV augment primary fold	GALR2 ag
CCOC(=O)c1c(NC(=O)CSc2nnc(-c3ccncc3)n2Cc2ccco2)sc(C)c1C	x	x	102.6	2.9	x	x	1.2
O=C(CC1C(=O)NCCN1Cc1cccc(Oc2ccccc2)c1)NCCc1cnccn1 (configuration not stated)	x	x	97.8	7.6	i	0.94	x
COc1ccc(C(=O)Nc2ccc(S(=O)(=O)N3CCOCC3)cc2)cc1OC	9.7	93.3	101.6	-1.8	i	0.95	-3.9
COc1ccccc1Oc1ccc(S(=O)(=O)N2CCN(C)CC2)cc1	-40.0	128.0	102.0	-3.8	i	1.01	x
C=CCNC(=O)C1CCN(S(=O)(=O)CC)CC1	x	x	95.0	0.0	i	1.12	0.2

Bioassay records deposited in PubChem BioAssay by several laboratories.
